Compound activity from PubChem.
KCNQ2 pot – KCNQ2 (rat) channel potentiation | O88943 | CHO-K1 KCNQ2, FluxOR thallium flux fluorescence; hits give high values | B-score at 10 µM | actives 0.54% (n = 310,000);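 active means fluorescence ratio B-score at least 3 SD of library B-scores, with initial fluorescence B-score within 3 SD, cut at about 5.3 in these data; same plate scores as AID 2156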;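 further: B-score of peak minus minimum over baseline fluorescence ratio after K+ and Tl+ stimulus; positive B-score means potentiation of KCNQ2 with more thallium influx and brighter signal; only the inactives scoring about 0 or higher are listed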
Target sequence (O88943 whole entry, looked up): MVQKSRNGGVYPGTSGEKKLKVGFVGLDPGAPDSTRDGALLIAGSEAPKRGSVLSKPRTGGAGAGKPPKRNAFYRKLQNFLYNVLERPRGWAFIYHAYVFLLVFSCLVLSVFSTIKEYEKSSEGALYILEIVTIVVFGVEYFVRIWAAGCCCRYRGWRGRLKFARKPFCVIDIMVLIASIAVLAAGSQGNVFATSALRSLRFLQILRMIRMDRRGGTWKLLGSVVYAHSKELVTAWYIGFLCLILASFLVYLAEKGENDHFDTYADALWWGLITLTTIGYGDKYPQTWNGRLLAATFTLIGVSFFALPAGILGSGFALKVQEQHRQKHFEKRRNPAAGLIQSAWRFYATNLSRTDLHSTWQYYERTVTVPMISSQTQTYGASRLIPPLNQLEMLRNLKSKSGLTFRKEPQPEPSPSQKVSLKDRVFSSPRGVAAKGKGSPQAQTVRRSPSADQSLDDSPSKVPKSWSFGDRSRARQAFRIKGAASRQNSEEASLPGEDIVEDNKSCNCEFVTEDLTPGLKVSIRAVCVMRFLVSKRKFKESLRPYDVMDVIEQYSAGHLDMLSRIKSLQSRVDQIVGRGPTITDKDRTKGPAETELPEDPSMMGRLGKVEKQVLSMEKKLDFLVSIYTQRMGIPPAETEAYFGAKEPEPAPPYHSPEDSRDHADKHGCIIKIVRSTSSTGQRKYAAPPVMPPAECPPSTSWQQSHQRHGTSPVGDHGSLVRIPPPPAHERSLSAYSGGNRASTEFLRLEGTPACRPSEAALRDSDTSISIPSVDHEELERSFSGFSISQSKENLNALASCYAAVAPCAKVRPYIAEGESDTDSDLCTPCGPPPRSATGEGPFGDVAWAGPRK
KCNQ2 pot baseline – also measured in KCNQ2 pot; calls as there; B-score; compound at 10 µM; measured here: initial fluorescence intensity artifact check;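 brightness before thallium and not channel activity; 0 = typical well and far values either way flag optical interference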
Starred values were filed as active, the others as inactive. A portion of the library, so the mix of outcomes need not match the whole.

How did COc1cc2c(cc1OC)CN(C(=O)C1CCCN1S(=O)(=O)c1ccc(F)cc1)CC2 (stereo unspecified) do in these assays?
KCNQ2 pot: 0.64; KCNQ2 pot baseline: -0.81

How did CC(=O)Nc1ccc(C(=O)CSc2nc3ccccc3n2CC(=O)N2CCCC2)cc1 do in these assays?
KCNQ2 pot: 0.76; KCNQ2 pot baseline: -1.11

What do the screens show for `COc1ccc(C)cc1NC(=O)NCc1ccccc1F`?
KCNQ2 pot: 1.17; KCNQ2 pot baseline: 0.57

Results for COc1ccc(CN2CCSc3sccc3C2=O)cc1 ?
KCNQ2 pot: 0.25; KCNQ2 pot baseline: -0.43

Results for CN(Cc1ccccc1)c1ccc(C(CC(N)=O)NC(=O)Cc2ccc(Br)cc2)cc1[N+](=O)[O-] (stereo unspecified) ?
KCNQ2 pot: 1.77; KCNQ2 pot baseline: 0.47

How did Cc1[nH]cnc1CSCc1ccc(F)cc1 do in these assays?
KCNQ2 pot: 0.36; KCNQ2 pot baseline: 0.03

What do the screens show for `CCCCn1c(=O)[nH]c(=O)c2c1nc(-c1ccc(-c3ccccc3Br)o1)n2CCOC`?
KCNQ2 pot: 1.02; KCNQ2 pot baseline: 0.63

What do the screens show for `COc1ccc2nc(SCC(=O)Nc3ccc4sc(C)nc4c3)c(C#N)cc2c1`?
KCNQ2 pot: 0.28; KCNQ2 pot baseline: -1.5

How did CCn1cc(CN2CCCC(CO)(Cc3ccc(F)cc3)C2)c2ccccc21 (stereo unspecified) do in these assays?
KCNQ2 pot: 0.04; KCNQ2 pot baseline: 0.91

Results for O=C(O)c1ccc(/C=N/Nc2nc(N3CCCCC3)nc(N3CCCCC3)n2)cc1 ?
KCNQ2 pot: 1.17; KCNQ2 pot baseline: 0.56

How did CCOCC(=O)Nc1cccc(C(=O)OCC)c1 do in these assays?
KCNQ2 pot: 0.34; KCNQ2 pot baseline: -1.67

How did CCCc1nc(SCC(=O)Nc2cc(Cl)ccc2OC)c2c(=O)n(C)c(=O)n(C)c2n1 do in these assays?
KCNQ2 pot: 0.04; KCNQ2 pot baseline: 0.88

What do the screens show for `Cc1ccccc1NC(=O)c1cnc2ccccn2c1=O`?
KCNQ2 pot: 0.03; KCNQ2 pot baseline: 0.09

What do the screens show for `CCC1(Cc2ccccc2)NC(=O)c2ccccc2O1` (stereo unspecified)?
KCNQ2 pot: 0.92; KCNQ2 pot baseline: 0.88

What do the screens show for `CSc1ccc(S(=O)(=O)NCC(=O)OC(C)C(=O)NCc2ccccc2)cc1[N+](=O)[O-]` (stereo unspecified)?
KCNQ2 pot: 0.04; KCNQ2 pot baseline: 0.51

How did O=C(CCN1CCOCC1)Nc1ccc2c(c1)CCC2 do in these assays?
KCNQ2 pot: 0.6; KCNQ2 pot baseline: -1.41

How did CS(=O)(=O)N1CCCC(C(=O)Nc2ccc(Br)cc2F)C1 (stereo unspecified) do in these assays?
KCNQ2 pot: 2.23; KCNQ2 pot baseline: 0.49

How did Cc1c(NC(=O)CN2C(=O)c3ccccc3C2=O)c(=O)n(-c2ccccc2)n1C do in these assays?
KCNQ2 pot: 0.59; KCNQ2 pot baseline: 0.05

Results for Cc1c(N=Cc2ccc(O)c(Br)c2)cccc1[N+](=O)[O-] ?
KCNQ2 pot: 0.74; KCNQ2 pot baseline: -0.1

How did COc1ccc(NC(=S)c2ccc(N(C)C)cc2)cc1 do in these assays?
KCNQ2 pot: 0.52; KCNQ2 pot baseline: 1.85

What do the screens show for `O=C1S/C(=C\c2ccc(O)c([N+](=O)[O-])c2)C(=O)N1Cc1cccc([N+](=O)[O-])c1`?
KCNQ2 pot: 0.89; KCNQ2 pot baseline: -1.62

How did O=C(Nc1ccc2c(c1)OCCO2)c1ccc2ccccc2n1 do in these assays?
KCNQ2 pot: 1.14; KCNQ2 pot baseline: -0.45

How did c1ccc(-c2cn3c(n2)SCC3)cc1 do in these assays?
KCNQ2 pot: 0.77; KCNQ2 pot baseline: 0.26

Results for Cc1cccc(C)c1NC(=O)N1CCC(n2cnc3ccccc32)CC1 ?
KCNQ2 pot: 0.06; KCNQ2 pot baseline: -0.73

Results for COc1ccccc1Nc1nc(-c2sc(NC(=O)c3cccc(Cl)c3)nc2C)cs1 ?
KCNQ2 pot: 0.13; KCNQ2 pot baseline: 1.31

Results for Cc1ccc(S(=O)(=O)N(C)CCCC(=O)N2CCCCC2)cc1 ?
KCNQ2 pot: 0.64; KCNQ2 pot baseline: 0.07

How did O=C(c1cc2cc(Br)cc(Br)c2oc1=O)N1CCOCC1 do in these assays?
KCNQ2 pot: 0.15; KCNQ2 pot baseline: 1.31

How did COc1ccccc1CCC(=O)OCC(=O)Nc1c(C)nn(-c2ccccc2)c1C do in these assays?
KCNQ2 pot: 1.74; KCNQ2 pot baseline: 0.25

How did COc1ccc(N2C(=O)CSC2c2ccccc2F)c(OC)c1 (stereo unspecified) do in these assays?
KCNQ2 pot: 0.05; KCNQ2 pot baseline: -2.93

What do the screens show for `Cc1cc(C(F)F)nn1CC(=O)Nc1cc([N+](=O)[O-])ccc1F`?
KCNQ2 pot: 1.23; KCNQ2 pot baseline: 0.27

Results for CN(C)C(CNC(=O)c1cccs1)c1cccnc1 (stereo unspecified) ?
KCNQ2 pot: 1.39; KCNQ2 pot baseline: 0.02

Results for Cc1cccc(-n2ncc3c2CCCC3NC(=O)C2CCOCC2)c1C (stereo unspecified) ?
KCNQ2 pot: 0.5; KCNQ2 pot baseline: 0.44

Results for Cc1ccc(-c2cn3cccnc3n2)cc1 ?
KCNQ2 pot: 0.41; KCNQ2 pot baseline: 0.04

Results for FC(F)(F)c1nnc2sc(-c3ccccn3)nn12 ?
KCNQ2 pot: 1.25; KCNQ2 pot baseline: -1.06

What do the screens show for `C=CCn1c(=O)c2ccccc2n2c(SC(C)C(=O)Nc3nc(-c4ccccc4)cs3)nnc12` (stereo unspecified)?
KCNQ2 pot: 0.22; KCNQ2 pot baseline: 1.01

What do the screens show for `O=C(COc1ccc([N+](=O)[O-])cc1)NNC(=O)c1cccs1`?
KCNQ2 pot: 0.4; KCNQ2 pot baseline: 0.26

Results for CC12CCC3(CO)COC(c4ccccc4O1)C2C3 (stereo unspecified) ?
KCNQ2 pot: 2.02; KCNQ2 pot baseline: -3.79

Results for CCN(CC)CCCC(C)NC(=O)c1cccc(S(=O)(=O)N2CCc3ccccc32)c1 (stereo unspecified) ?
KCNQ2 pot: 1.53; KCNQ2 pot baseline: 1.67

How did O=C(c1cccs1)N(c1ccc(F)cc1)C1C=CS(=O)(=O)C1 (stereo unspecified) do in these assays?
KCNQ2 pot: 0.05; KCNQ2 pot baseline: -3.07

What do the screens show for `CCc1ccc(OCC(=O)NNC(=O)c2cc(S(=O)(=O)N(C)C)ccc2N2CCCC2)cc1`?
KCNQ2 pot: 0.12; KCNQ2 pot baseline: 0.26

How did Cc1cc(-c2nnc(CCC(=O)NCc3ccc(OC(F)(F)F)cc3)o2)no1 do in these assays?
KCNQ2 pot: 0.06; KCNQ2 pot baseline: 2.22

What do the screens show for `O=C(NCC1CCCN(Cc2nccs2)C1)c1cccc2ccccc12` (stereo unspecified)?
KCNQ2 pot: 0.74; KCNQ2 pot baseline: -0.06

What do the screens show for `COc1ccccc1-c1nc(-c2ccc(C(=O)O)cc2)no1`?
KCNQ2 pot: 1.44; KCNQ2 pot baseline: -0.04

What do the screens show for `COCCOc1cc(COC)nc(-c2cccc(C)c2)n1`?
KCNQ2 pot: 1.73; KCNQ2 pot baseline: -2.74

What do the screens show for `COc1ccc(-c2csc(Nc3ccc(C)cn3)n2)cc1`?
KCNQ2 pot: 2.79; KCNQ2 pot baseline: -0.36

Results for Cc1cccc(CC(=O)NCC(=O)NCc2cc(=O)n(C)c(=O)n2C)c1 ?
KCNQ2 pot: 0.94; KCNQ2 pot baseline: 0.48

Results for C=CCc1c(O)c(CC)cc2c(C)cc(=O)oc12 ?
KCNQ2 pot: 1.07; KCNQ2 pot baseline: -0.94

What do the screens show for `CC(OC(=O)CCN=C1NS(=O)(=O)c2ccccc21)C(=O)NCc1ccccc1` (stereo unspecified)?
KCNQ2 pot: 0.79; KCNQ2 pot baseline: 1.71

Results for CC(=O)c1cccc(NC=C2C(=O)OC3(CCCCC3)OC2=O)c1 ?
KCNQ2 pot: 0.13; KCNQ2 pot baseline: 0.25

What do the screens show for `CC(=O)N1CCN2C(=O)C1CCCC(=O)c1cc(C)ccc12` (stereo unspecified)?
KCNQ2 pot: 0.09; KCNQ2 pot baseline: -0.27

What do the screens show for `Cc1cccc(C(=O)NC(CC(=O)O)c2ccc(OC3CCCC3)cc2)c1[N+](=O)[O-]` (stereo unspecified)?
KCNQ2 pot: 1.55; KCNQ2 pot baseline: 0.06

What do the screens show for `COC(=O)C1=C(N)Oc2cc(C)n(Cc3cccnc3)c(=O)c2C1c1ccc(OC)c(OC)c1` (stereo unspecified)?
KCNQ2 pot: 0.52; KCNQ2 pot baseline: -1.43

How did Cc1sc2ncn3cnnc3c2c1C do in these assays?
KCNQ2 pot: 1.78; KCNQ2 pot baseline: 2.09

How did CC(=O)c1ccc2c(c1)OCCOCCOCCOCCOCCO2 do in these assays?
KCNQ2 pot: 0.02; KCNQ2 pot baseline: -0.85

How did O=C(CCc1ccccc1)N/N=C/c1cc(Br)ccc1O do in these assays?
KCNQ2 pot: 0.29; KCNQ2 pot baseline: 0.36

How did CS(=O)(=O)Nc1ccc(S(=O)(=O)N2CCCC2)cc1 do in these assays?
KCNQ2 pot: 0.77; KCNQ2 pot baseline: 0.1

What do the screens show for `O=C(COC(=O)c1ncc(Cl)c(Cl)c1Cl)Nc1ccccc1OC(F)F`?
KCNQ2 pot: 0.17; KCNQ2 pot baseline: 2.91

Results for CSCCC(NS(=O)(=O)c1cccc(C(F)(F)F)c1)C(=O)N(C)Cc1ccc2c(c1)OCCO2 (stereo unspecified) ?
KCNQ2 pot: 0.11; KCNQ2 pot baseline: -2.43

Results for Cc1ccc(N(C(C)C(=O)N2CCCCC2)S(C)(=O)=O)cc1C (stereo unspecified) ?
KCNQ2 pot: 0.99; KCNQ2 pot baseline: 0.68

Results for S=C(c1c[nH]c2ccccc12)N1CCCC1 ?
KCNQ2 pot: 1.7; KCNQ2 pot baseline: -0.15

Results for CCn1c(C)c(C(C)=O)c(N2CCN(c3ccccn3)CC2)nc1=S ?
KCNQ2 pot: 0.29; KCNQ2 pot baseline: -0.03

How did O=C(c1cc(-c2ccc(Cl)cc2)n[nH]1)N1CCN(C(=O)c2ccco2)CC1 do in these assays?
KCNQ2 pot: 0.36; KCNQ2 pot baseline: 0.02

How did COC(=O)C1CSC(C(=O)OC)N1C(=O)CN1CCN(c2ccccc2)CC1 (stereo unspecified) do in these assays?
KCNQ2 pot: 2.33; KCNQ2 pot baseline: 0.14

How did O=C(Nc1ncc(Cc2cccc(Cl)c2)s1)c1ccc([N+](=O)[O-])cc1 do in these assays?
KCNQ2 pot: 0.53; KCNQ2 pot baseline: 1.52

How did O=C(CCCc1c[nH]c2ccccc12)N1CCCCCC1 do in these assays?
KCNQ2 pot: 0.17; KCNQ2 pot baseline: -0.88

What do the screens show for `CCOC(=O)CNC(=O)C12CC3CC(CC(C3)C1)C2`?
KCNQ2 pot: 0.43; KCNQ2 pot baseline: 0.34

How did CC(C)c1ccccc1OCC(O)CN1CCN(S(=O)(=O)c2ccc([N+](=O)[O-])cc2)CC1 (stereo unspecified) do in these assays?
KCNQ2 pot: 1.16; KCNQ2 pot baseline: 1.48

How did O=C(CSc1nc(O)cc(=O)n1-c1ccccc1)NCc1ccccc1 do in these assays?
KCNQ2 pot: 0.81; KCNQ2 pot baseline: -0.22

What do the screens show for `CCNc1c(NC(=O)COc2ccc(Cl)cc2)c(=O)oc2ccccc12`?
KCNQ2 pot: 0.71; KCNQ2 pot baseline: 0.61

How did Cn1c(SCC2CCCCC2)nnc1-c1ccncc1 do in these assays?
KCNQ2 pot: 1.58; KCNQ2 pot baseline: -0.03

Results for Nc1cc2nsnc2cc1Br ?
KCNQ2 pot: 0.59; KCNQ2 pot baseline: 0.42

Results for CN(C)S(=O)(=O)Nc1cc(Cl)cc(Cl)c1 ?
KCNQ2 pot: 0.75; KCNQ2 pot baseline: 0.88

What do the screens show for `CC1(C)Cc2nc3sc4c(NCCO)ncnc4c3cc2CS1`?
KCNQ2 pot: 0.05; KCNQ2 pot baseline: -0.98

How did CCN(CC)C(=O)C(=O)Nc1ccc(OC)c(Cl)c1 do in these assays?
KCNQ2 pot: 2.27; KCNQ2 pot baseline: -0.08

Filtered by structure, those above containing a nitro group on carbon
Results for CN(Cc1ccccc1)c1ccc(C(CC(N)=O)NC(=O)Cc2ccc(Br)cc2)cc1[N+](=O)[O-] (stereo unspecified) ?
KCNQ2 pot: 1.77; KCNQ2 pot baseline: 0.47

What do the screens show for `CSc1ccc(S(=O)(=O)NCC(=O)OC(C)C(=O)NCc2ccccc2)cc1[N+](=O)[O-]` (stereo unspecified)?
KCNQ2 pot: 0.04; KCNQ2 pot baseline: 0.51

Results for Cc1c(N=Cc2ccc(O)c(Br)c2)cccc1[N+](=O)[O-] ?
KCNQ2 pot: 0.74; KCNQ2 pot baseline: -0.1

What do the screens show for `O=C1S/C(=C\c2ccc(O)c([N+](=O)[O-])c2)C(=O)N1Cc1cccc([N+](=O)[O-])c1`?
KCNQ2 pot: 0.89; KCNQ2 pot baseline: -1.62

What do the screens show for `Cc1cc(C(F)F)nn1CC(=O)Nc1cc([N+](=O)[O-])ccc1F`?
KCNQ2 pot: 1.23; KCNQ2 pot baseline: 0.27

What do the screens show for `O=C(COc1ccc([N+](=O)[O-])cc1)NNC(=O)c1cccs1`?
KCNQ2 pot: 0.4; KCNQ2 pot baseline: 0.26

What do the screens show for `Cc1cccc(C(=O)NC(CC(=O)O)c2ccc(OC3CCCC3)cc2)c1[N+](=O)[O-]` (stereo unspecified)?
KCNQ2 pot: 1.55; KCNQ2 pot baseline: 0.06

How did O=C(Nc1ncc(Cc2cccc(Cl)c2)s1)c1ccc([N+](=O)[O-])cc1 do in these assays?
KCNQ2 pot: 0.53; KCNQ2 pot baseline: 1.52

How did CC(C)c1ccccc1OCC(O)CN1CCN(S(=O)(=O)c2ccc([N+](=O)[O-])cc2)CC1 (stereo unspecified) do in these assays?
KCNQ2 pot: 1.16; KCNQ2 pot baseline: 1.48
